# GSK3 alpha inh: human GSK-3 alpha kinase inhibition | P49840 | ADP-Glo luminescence, 60 min | inhibition, % at 10 µM | 0.1% of 320,000 active;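 in the data active means inhibition above about 50%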;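 further: GST-tagged GSK-3 alpha with peptide substrate and 25 µM ATP; 0% = DMSO neutral wells and 100% = GW8510 positive control wells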
# Target sequence (P49840 whole entry, looked up): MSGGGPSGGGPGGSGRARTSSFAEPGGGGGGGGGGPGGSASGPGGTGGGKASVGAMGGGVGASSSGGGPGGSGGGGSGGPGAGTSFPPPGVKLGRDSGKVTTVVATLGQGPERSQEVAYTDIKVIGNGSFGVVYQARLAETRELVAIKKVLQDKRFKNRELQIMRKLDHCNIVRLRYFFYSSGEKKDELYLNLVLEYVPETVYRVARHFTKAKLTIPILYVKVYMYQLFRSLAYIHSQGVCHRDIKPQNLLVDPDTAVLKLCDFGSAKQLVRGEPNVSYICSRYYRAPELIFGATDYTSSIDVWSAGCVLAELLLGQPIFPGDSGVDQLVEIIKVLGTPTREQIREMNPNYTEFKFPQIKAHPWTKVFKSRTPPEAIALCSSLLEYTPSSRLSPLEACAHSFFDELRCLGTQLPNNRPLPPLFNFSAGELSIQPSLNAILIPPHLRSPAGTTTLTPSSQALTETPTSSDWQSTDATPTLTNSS
# HSP90 refold inh: inhibitors of HSP90 luciferase refolding in rabbit reticulocyte lysate; luciferase refolding luminescence, 3 h; inhibition, % at 5.6 µM; 0.91% of 290,000 active;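 active means inhibition above the screen-wide mean plus 3 SD, computed separately per campaign, cut at about 16% in these data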;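 further: 0% = DMSO wells and 100% = 60 µM geldanamycin wells; inhibitors lower the luminescence because luciferase stays unfolded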
# Dyrk1A ADPGlo: inhibitors of rat Dyrk1A kinase; Q63470; ADP-Glo luminescence, NFATc1 peptide; inhibition, % at 12.5 µM; 0.43% of 310,000 active; in the data active means inhibition above about 50%;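 further: plate controls were vehicle with enzyme for no effect and no enzyme for full effect; many of its hits are not listed in these tables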
# KLF5 inh: inhibitors of KLF5 expression; 0.23% of 290,000 active; DLD-1 KLF5 promoter-luciferase reporter, luminescence; inhibition, % at 5 µM; AID 1700;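 active means inhibition above a per-plate limit of that plate's mean compound inhibition plus 3 SD, cut at about 60% in these data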;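 further: 0% = DMSO wells and 100% = LY294002 at 200 µM; higher means less KLF5 promoter-driven luciferase light; inactives centre near -14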
# GSK3B inh: blocks human GSK3beta kinase activity; 0.038% of 300,000 active; AID 2097; activity score (negative = inhibition), % at 10 µM; GST-GSK3beta kinase, ADP-Glo luminescence, 60 min; stronger effect = lower value; P49841;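 active means more than half of replicate wells score below -50%, meaning over 50% inhibition versus plate controls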;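 further: 0% = median DMSO wells and -100% = median GW8510 positive control wells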
#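 Assay system: GST-fused GSK3beta enzyme, cell-free / Medium: Tris pH 7.5 buffer with MgCl2, DTT, BSA, heparin / Also added: peptide substrate plus 25 µM ATP (final) / Compound: 10 µM single point / Timing: kinase reaction with compound 60 min at room temperature / Detection: ADP-Glo luminescence / Benchmarks: DMSO neutral wells and GW8510 at 20 µM as positive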
# Numbers without * were called inactive; / = no result given; & = joins results of further samples.
(1) CCOC(C(=O)OCCC[N+](C)(CC)CC)(c1ccccc1)c1ccccc1
(2) COc1ccc(CN2CCNCC2)c(OC)c1OC
(3) C=C1C(=O)O[C@H]2C[C@@H](C)[C@@H]3C=CC(=O)[C@@]3(C)C[C@H]12
(4) O=C1NC(=O)C(CCc2ccncc2)(CCc2ccncc2)C(=O)N1Cc1ccccc1
(5) N[C@@H]1CCCC[C@H]1N.O=C(O)C(=O)O.[Pt]
(6) CN(C)[C@@H]1C(=O)C(C(N)=O)=C(O)[C@@]2(O)C(=O)C3=C(O)c4c(O)cccc4[C@@](C)(O)[C@H]3C[C@@H]12

entry no.	1	2	3	4	5	6
GSK3B inh	4	-3	1	-1	-2	-2
KLF5 inh	-20	-16	/	-12	/	/
GSK3 alpha inh	1	-2&-2	-2	1	-5	1
HSP90 refold inh	-3	-1	/	4	/	/
Dyrk1A ADPGlo	-2	12&4	/	1	/	/

(7) CC1CCC/C=C/C2CC(O)CC2C(O)/C=C/C(=O)O1 (stereo unspecified)
(8) C[C@H]1CCC/C=C/[C@@H]2C[C@H](O)C[C@H]2[C@H](O)/C=C/C(=O)O1
(9) CN1CCN(c2cc(N3CCNCC3)ccc2[N+](=O)[O-])CC1
(10) O=C(CCCN1CCC2(CC1)C(=O)NCN2c1ccccc1)c1ccc(F)cc1

entry no.	7	8	9	10
GSK3B inh	-3	/	0	0
KLF5 inh	94*	/	-23	-9
GSK3 alpha inh	-1	-4&0	1	-2
HSP90 refold inh	0	/	-3	0
Dyrk1A ADPGlo	0	10&10	1	-6

# Arranged by number of heavy atoms (lowest first): five of the compounds above
(3) C=C1C(=O)O[C@H]2C[C@@H](C)[C@@H]3C=CC(=O)[C@@]3(C)C[C@H]12
(2) COc1ccc(CN2CCNCC2)c(OC)c1OC
(8) C[C@H]1CCC/C=C/[C@@H]2C[C@H](O)C[C@H]2[C@H](O)/C=C/C(=O)O1
(1) CCOC(C(=O)OCCC[N+](C)(CC)CC)(c1ccccc1)c1ccccc1
(10) O=C(CCCN1CCC2(CC1)C(=O)NCN2c1ccccc1)c1ccc(F)cc1

entry no.	3	2	8	1	10
GSK3B inh	1	-3	/	4	0
KLF5 inh	/	-16	/	-20	-9
GSK3 alpha inh	-2	-2&-2	-4&0	1	-2
HSP90 refold inh	/	-1	/	-3	0
Dyrk1A ADPGlo	/	12&4	10&10	-2	-6

# An excerpt, so the mix of outcomes need not match the whole.
